# FGF22 binding = FGF22 (human) thermal shift binding; hit rate 1.5% among 340,000; calls only at 9.99 µM; AID 651658; Q9HCT0; recombinant FGF22 thermal shift, SYPRO orange fluorescence; percent of sucrose octasulfate shift, DMSO zero;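 active = melting point raised past a set limit in the mean and every replicate; inconclusive = no clear call; three in four hits are not shown here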
# Target sequence (Q9HCT0 whole entry, looked up): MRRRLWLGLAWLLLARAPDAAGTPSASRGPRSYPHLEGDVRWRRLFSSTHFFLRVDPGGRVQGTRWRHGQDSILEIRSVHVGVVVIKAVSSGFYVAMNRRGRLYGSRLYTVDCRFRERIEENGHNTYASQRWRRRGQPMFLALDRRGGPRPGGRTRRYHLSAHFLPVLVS
# E coli growth = E. coli growth inhibition | Escherichia coli growth, OD600, 23 h; hits give low values | OD600 absorbance (test concentration not listed) | hit rate 0.21% among 330,000;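 active = OD600 absorbance below the run mean of sample wells minus 3.6 SD, in any replicate, cut at about 0.56 in these data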;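 note: stock transfer was 300 nL into about 60 µL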
# RanGTP-Imp inh = disruptors of Ran-importin-beta complex formation – biochemical, FRET, CFP-Ran, YFP-importin-beta, homogeneous, primary screen; cell-free CFP-Ran/YFP-importin-beta FRET ratio; inhibition, % (concentration not given with the values); hit rate 1.1% among 300,000;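 active = most replicates above 15%; inconclusive = exactly half above 15%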;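 note: 0% = DMSO wells and 100% = Ran loaded with GDP instead of GTP; wells of about 40 µL received 100 nL stock; the first replicate is given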
# MLL AF4-AF9 inh = MLL-AF4/AF9 protein interaction inhibition. inhibition, % at 10 µM. AlphaScreen, biotin-AF4 peptide binding to FLAG-AF9. hit rate 0.47% among 350,000. AID 651704;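 active = every replicate reaching a set inhibition limit, whatever the replicate mean, cut at about 25% in these data; inconclusive = mean inhibition reaches that limit but some replicates miss it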;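 note: 0% = plate neutral control median and 100% = total signal loss; the record names both 10 and 1 µM as test concentration; the first replicate is given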
# Target sequence (P42568 whole entry, looked up): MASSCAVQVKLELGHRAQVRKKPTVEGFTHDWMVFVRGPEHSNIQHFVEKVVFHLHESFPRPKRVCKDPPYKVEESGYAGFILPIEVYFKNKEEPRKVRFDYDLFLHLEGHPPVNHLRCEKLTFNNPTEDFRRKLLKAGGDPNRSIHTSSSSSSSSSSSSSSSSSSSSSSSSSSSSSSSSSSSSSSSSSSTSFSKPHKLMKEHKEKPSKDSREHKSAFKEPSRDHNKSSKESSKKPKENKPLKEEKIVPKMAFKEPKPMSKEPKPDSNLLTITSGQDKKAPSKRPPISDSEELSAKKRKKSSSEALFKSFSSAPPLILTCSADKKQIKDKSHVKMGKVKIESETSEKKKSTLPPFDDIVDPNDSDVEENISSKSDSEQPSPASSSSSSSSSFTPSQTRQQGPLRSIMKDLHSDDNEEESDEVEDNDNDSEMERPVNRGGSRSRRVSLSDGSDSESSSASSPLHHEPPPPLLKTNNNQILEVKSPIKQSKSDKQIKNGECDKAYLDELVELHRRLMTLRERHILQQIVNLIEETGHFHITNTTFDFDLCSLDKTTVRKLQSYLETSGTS
# Vif A3G = HIV-1 Vif–A3G interaction blockers – biochemical, TR-FRET, GST-Vif 1-94, biotin-A3G peptide, dose response retest, primary screen (AID 1117319). inhibition, %, or IC50 in µM where a hit was titrated. hit rate 0.57% among 260,000. TR-FRET GST-Vif / biotin-A3G peptide binding; higher % means a stronger effect; test concentration not given here; strong numbers were not always called active;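 active = above the screen mean plus three standard deviations and confirmed in dose response; inconclusive = results disagree or hit not tested in dose response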;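 note: Vif residues 1-94 fused to GST binding biotinylated APOBEC3G peptide 110-148; 0% = full assay without inhibitor and 100% = GST in place of GST-Vif; retest series ran down from 100 µM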
# HNF4A DNA FP = change in binding of human HNF4 alpha to DNA; P41235; activity change, % at 10 µM; hit rate 0.3% among 360,000; HNF4a-FITC DNA binding, fluorescence polarization, 1 h; in the data active = activity change above about 30%, passing the limit was not always enough;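 note: controls were the assay level and a saturating level of protein; the project sought stronger binding though the title names inhibitors; some compounds called inactive have numbers as strong as hits; positive values seem to mean higher polarization but the record does not say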
# UCH37 inh = inhibitors of human deubiquitinating enzyme UCH37; hit rate 0.33% among 330,000; purified proteasome/UCH37, Ub-AMC cleavage fluorescence; inhibition, % (test concentration not listed); Q9Y5K5;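 active = mean of two replicates above 20%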;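 note: 0% = compound-free wells with enzyme and 100% = wells lacking proteasome; stock transfer was 100 nL into about 20 µL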
# Target sequence (Q9Y5K5 whole entry, looked up): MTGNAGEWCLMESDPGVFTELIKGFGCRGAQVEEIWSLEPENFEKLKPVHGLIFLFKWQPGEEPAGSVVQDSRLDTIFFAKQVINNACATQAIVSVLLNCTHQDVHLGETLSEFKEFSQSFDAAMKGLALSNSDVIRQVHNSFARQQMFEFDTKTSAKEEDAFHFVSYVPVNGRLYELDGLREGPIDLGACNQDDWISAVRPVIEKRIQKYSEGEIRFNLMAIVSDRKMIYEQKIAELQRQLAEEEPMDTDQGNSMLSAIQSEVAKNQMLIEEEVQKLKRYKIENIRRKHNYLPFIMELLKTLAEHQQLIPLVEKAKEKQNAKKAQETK
#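 Signal – fluorescence, ex 355 nm, em 460 nm · System – Proteasome-bound UCH37 · Input – 0.15 nM proteasome as dispensed · Timing – 30 min preincubation with enzyme, 25 min cleavage at room temperature · Read-out basis – percent inhibition of cleavage signal versus uninhibited and no-proteasome wells · Medium – Tris-HCl pH 7.4 with ATP-MgCl2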
# Active calls of the source: *; i = inactive; ? = inconclusive; / = not tested or not shown; & = joins results of further samples. Some of the compounds tested. The share of hits here may be higher or lower than overall.
canonical_smiles	UCH37 inh	Vif A3G	RanGTP-Imp inh	MLL AF4-AF9 inh	FGF22 binding	E coli growth	HNF4A DNA FP
CN(C)S(=O)(=O)c1cccc(NC(=S)NC(=O)C2CCCCC2)c1	3.9	/	0.2	3.0	i	0.715	11.2
Cc1cccc(COc2ccc(S(=O)(=O)N3CCOCC3)cc2[N+](=O)[O-])c1	3.1	3.5%	/	-4.9	i	0.715	-3.9
COc1ccccc1NC(=S)NNC(=O)c1ccccc1	0.4	-1.9%	1.1	/	/	0.649	1.6
COc1ccc(NS(=O)(=O)c2ccc(NC(=S)NC(=O)/C=C/c3ccccc3)cc2)nn1	2.3	/	1.0	/	/	0.648	0.5
CN1C(=O)[C@H]2[C@@H](c3ccc(C(F)(F)F)cc3)N[C@]3(CCCN(Cc4ccc(Br)cc4)C3=O)[C@H]2C1=O	/	0.3%	/	1.9	i	/	-1.2
Cc1ccc(-n2nc3c(c2NC(=O)c2ccc4c(c2)OCO4)CSC3)cc1	0.0	18.2%	5.4	/	/	0.813	-2.0
O=C(Nc1ccccn1)c1cccs1	1.2	-1.9%	2.6	/	/	0.661	-1.4
CCCCOc1ccc(C2(C)NC(=O)NC2=O)cc1 (stereo unspecified)	/	-3.2%	-1.1	2.5	i	/	-3.2
CCn1c(-c2cc(C3CC3)nc3ccccc23)n[nH]c1=S	-2.1	/	-2.9	3.3	i	0.703	4.1
FC(F)(F)c1cnc(/C=C/Nc2ccccc2Cl)c(Cl)c1	5.5	1.9%	-1.2	/	/	0.663	-0.8
CCOC(=O)N1CCN(CCC(=O)Nc2ccc(C)c(Br)c2)CC1	3.6	9.0%	1.4	/	/	0.737	3.2
CC1CCCCN1CCNC(=O)c1cc2c(-c3ccccc3F)nn(C)c2s1 (stereo unspecified)	-48.4	0.0%	1.0	0.5	i	0.691	1.2
Cc1noc(C)c1S(=O)(=O)N1CCCCC1c1cc(C(=O)Nc2cccc3c2CCCC3)no1 (stereo unspecified)	/	/	/	-0.9	i	/	0.1
C(=C\c1ccncc1)/c1ccncc1	3.0	-7.5%	?	21.5	i	0.651	3.1
CCOC(=O)CNC(=O)CSc1nc(-c2cccc(C)c2)ns1	3.2	-4.5%	8.4	-4.6	i	0.719	5.0
Cc1ccc(NC(=O)c2ccc3nc(N4CCOCC4)sc3c2)c(Cl)c1	0.6	/	11.8	1.1	i	0.716	-2.6
O=C(CCS(=O)(=O)c1ccc(Br)cc1)N1CCN(c2ccccc2)CC1	6.2	28.0%	/	/	/	0.781	-2.2
Cc1ccc(C(=O)NCC(=O)OC(C)C(=O)NC2CCCc3ccccc32)cc1 (stereo unspecified)	4.9	0.3%	?	-0.7	/	0.706	-2.9
COc1ccc(/C=C/C(=O)NCCC(=O)N2CCCN(C)CC2)cc1	4.1	0.0%	?	-0.9	i	0.621	3.7
Cc1cccc(NC(=S)N2CCC(NC(=O)c3ccco3)CC2)c1	3.6	/	-1.1	-1.5	i	0.656	2.2

# Entries of single compounds, quoted from the list. Order of screens: UCH37 inh | Vif A3G | RanGTP-Imp inh | MLL AF4-AF9 inh | FGF22 binding | E coli growth | HNF4A DNA FP
# `Cc1ccc(-n2nc3c(c2NC(=O)c2ccc4c(c2)OCO4)CSC3)cc1` is listed as 0.0 | 18.2% | 5.4 | / | / | 0.813 | -2.0
# `FC(F)(F)c1cnc(/C=C/Nc2ccccc2Cl)c(Cl)c1` is listed as 5.5 | 1.9% | -1.2 | / | / | 0.663 | -0.8

# Other structures follow.
canonical_smiles	UCH37 inh	Vif A3G	RanGTP-Imp inh	MLL AF4-AF9 inh	FGF22 binding	E coli growth	HNF4A DNA FP
CCOc1ccc(S(=O)(=O)n2ccnc2)c2ccccc12	4.2	0.7%	3.3	1.5	i	0.7	1.0
COC(=O)C1=NNC2C(=O)N(c3ccc(C)cc3)C(=O)C12 (stereo unspecified)	1.2	7.9%	-2.3	-0.2	i	0.696	3.3
NC(=O)c1ccc(NC(=O)COC(=O)c2n[nH]c3ccccc23)cc1	0.9	-9.4%	/	-1.1	i	0.678	-1.0
O=C(C1=C[C@H](C2CCCCC2)C[C@H](OCc2ccc(CO)cc2)O1)N1CCN(Cc2ccc3c(c2)OCO3)CC1	-0.8	-7.0%	0.6	7.7	i	/	2.2
CCCCC(=O)Nc1nnc(-c2ccc(OC)cc2)s1	-2.9	-2.6%	0.0	/	/	0.73	0.0
COc1ccc(NC(=O)N(C)C[C@H]2Oc3ccc(NC(=O)NC(C)C)cc3C(=O)N([C@H](C)CO)C[C@@H]2C)cc1	4.0	/	/	-2.2&2.2	i	0.755	-2.1
COC(=O)c1sc(NC(=O)CSc2nc3nc(C)cc(C)n3n2)c(C(=O)OC)c1C	6.2	/	-1.0	2.5	i	0.705	0.1
CSc1nnc(NC(=O)c2ccc(S(=O)(=O)N(C)C)cc2)s1	4.7	-1.0%	-0.7	-4.8	i	0.671	-2.2
NC(=O)c1ccc(NC(=O)C2CC2)cc1	0.4	4.4%	-0.2	-2.1	i	0.713	-0.5
O=C1C2C3C=CC(CO)(O3)C2C(=O)N1c1ccccc1-c1ccccc1 (stereo unspecified)	0.5	-3.3%	/	/	/	0.609	-2.5
Cc1cccc(C)c1NC(=O)CCCSc1nnnn1C	0.7	-1.1%	-2.0	/	/	0.714	-0.2
CCOCCn1c(SC(C)C(C)=O)nc2c1c(=O)[nH]c(=O)n2C (stereo unspecified)	1.4	13.3%	3.3	-4.2	i	0.64	2.6
CCCc1nc2ccccc2c(NC(=O)CN(CC)CC)c1CC	1.4	2.7%	0.6	-1.0	i	0.653	-6.3
COc1ccc(C(=O)NC(=S)N(CCC(C)C)c2c(N)n(Cc3ccccc3)c(=O)[nH]c2=O)cc1	0.7	6.6%	-5.0	10.3	i	0.702	1.4
COc1cc(NC(=O)CCS(=O)(=O)c2ccc3c(c2)oc(=O)n3C)cc(OC)c1OC	3.0	/	2.4	1.1	i	0.699	2.2
O=C(NC1CCCCC1)C(c1cccnc1)N(C(=O)c1csnn1)C1CCCC1 (stereo unspecified)	4.8	0.9%	-4.1	/	/	0.691	-0.7
CC(C)(C)c1nnc(NC(=O)C2CCN(c3ncccn3)CC2)s1	-3.0	-1.4%	0.6	/	/	0.753	-3.0
CSCCC(c1nnnn1C1CCCCC1)N1CCN(C/C=C/c2ccccc2)CC1 (stereo unspecified)	/	/	/	5.3	i	/	8.1
CCC(=O)c1cn(CC(=O)NCc2ccco2)c2ccccc12	2.6	-0.9%	?	/	/	0.75	2.4
C=CCn1c(-c2cccc(OCC)c2)n[nH]c1=S	1.3	3.9%	-2.4	-4.1	/	0.67	-0.5
CCN(Cc1ccccc1)C(=O)CSc1nc(C)cc(C)c1C#N	1.8	10.2%	-1.1	-5.5	i	0.761	-2.5
COc1ccc(Cn2c(=O)c3[nH]cnc3n(-c3ccc(C)cc3)c2=O)cc1	6.0	0.7%	7.4	0.9	i	0.641	1.0
CCC(C)c1ccc(NC(=S)NCc2cccs2)cc1 (stereo unspecified)	5.4	0.4%	0.8	/	/	0.686	1.1
CCOC(=O)CSc1nnc(CSc2nc(C)cc(C)n2)n1Cc1ccco1	0.4	13.4%	3.2	/	/	0.668	1.8
CC(=O)c1ccc([N+](=O)[O-])c(CS(=O)(=O)c2ccccc2)c1	2.5	-2.6%	-0.1	0.3	i	0.687	-1.1
COc1ccc(-c2cc(C(=O)Nc3c(Cl)cc(Cl)cc3Cl)c3ccccc3n2)cc1OC	-167.1	18.5%	9.8	2.4	i	0.737	2.0
c1ccc(-c2nc3ccccc3c3nc4ccccc4n23)cc1	-110.2	/	-0.6	/	/	0.743	2.3
CCOc1ccccc1NC(=O)c1cccc(NC2=NC3CS(=O)(=O)CC3S2)c1 (stereo unspecified)	4.0	/	6.8	-8.5	i	0.667	-1.9
COc1ccc(C(C(=O)NC2CCCC2)N(Cc2ccc(F)cc2)C(=O)c2ccn[nH]2)cc1OC (stereo unspecified)	4.9	-3.3%	-1.8	10.0	i	0.716	2.5
Cc1nc2sc(C(c3ccco3)N3CCN(C(c4ccccc4)c4ccccc4)CC3)c(O)n2n1 (stereo unspecified)	3.9	/	4.7	3.0	i	0.807	2.3
Cc1ccc(C)c(NC(=O)[C@@H]2CCCN2S(=O)(=O)c2ccccc2F)c1	0.0	/	/	2.7	i	0.708	1.7
Cc1ccc(NS(=O)(=O)c2ccc(C(=O)OCC(=O)NCC3CCCO3)cc2)cc1 (stereo unspecified)	3.8	-3.3%	-4.6	-0.6	i	0.652	-1.4
c1ccc(C2OCCN2c2ccccc2)cc1 (stereo unspecified)	2.6	1.9%	/	1.3	i	0.684	-2.3
Cc1ccc(C)c(-c2csc(NC(=O)c3cnccn3)n2)c1	2.9	26.1%	3.1	-2.0	i	0.718	-0.8
O=Cc1ccccc1-c1cn(CCCOCc2ccccc2)nn1	0.8	/	5.7	-13.9	i	0.673	1.4
CC(C)CNCC(=O)N1c2ccccc2Sc2ccccc21	1.4	-6.9%	-5.2	/	/	0.704	-1.1
CCN1C2=NCCCN2c2cc(C)c(C)cc21	1.7	3.2%	0.3	/	/	0.734	-0.1
COCCn1c(N)c(N(Cc2ccccc2)C(=O)CSCC(=O)Nc2ccc(C)cc2)c(=O)[nH]c1=O	4.6	-1.3%	-2.0	-1.3	i	0.634	2.8
COc1ccc(CSCC(=O)Nc2ccccc2SC)cc1	5.8	-3.9%	0.9	-0.4	i	0.746	0.3
c1ccc2oc(-c3[nH]ncc3CN3CCSCC3)cc2c1	5.5	?	1.3	4.6	i	0.683	2.0
O=C(CN1CCCc2ccccc21)Nc1cc(S(=O)(=O)N2CCCC2)ccc1Cl	-2.4	-6.0%	/	1.7	i	0.751	-0.8
CCOc1ccc(N2C(=O)c3ccccc3C2=O)cc1	0.8	-5.3%	2.8	/	/	0.738	1.3
O=c1c2c(nc3cc(-c4ccccc4)[nH]n13)CCC2	-11.1	-0.8%	-0.7	/	/	0.716	-1.6
CCN(CC(=O)NCc1cccs1)C(=O)c1ccc(NS(=O)(=O)c2ccc(F)cc2)cc1	5.1	-9.9%	-0.1	-1.3	/	0.677	1.2
O=[N+]([O-])c1ccc2c(c1)N([O-])C1(CCCCC1)[N+]2=O	51.5*	-0.9%	/	5.0	i	0.665	/
O=C(Nc1cccc(O)c1)C(Cc1ccccc1)N1C(=O)c2cccc3cccc(c23)C1=O (stereo unspecified)	2.9	-5.3%	-2.8	7.3	i	0.73	6.2
Cc1n[nH]c(=S)n(/N=C/c2ccccn2)c1=O	/	18.9%	-2.5	/	/	/	-0.8
CCOC(=O)Cc1csc(NS(=O)(=O)c2cccc([N+](=O)[O-])c2)n1	3.4	/	-2.1	-2.3	i	0.71	-0.6
CCN(C(=O)COC(=O)CSc1ccc([N+](=O)[O-])cc1)C1CCS(=O)(=O)C1 (stereo unspecified)	6.2	/	0.7	0.2	i	0.703	-3.1
CCOc1ccc(N=c2scc(-c3ccc(OC)cc3)n2CCO)cc1	1.1	1.2%	-1.5	/	/	0.756	0.0
Cc1nn(-c2ccccc2)c(Cl)c1C(=O)Nc1nnc(C2CCCC2)s1	3.4	11.1%	2.7	/	/	0.694	4.9
CCC(Sc1nncn1C)C(=O)Nc1nnc(-c2ccccc2Cl)s1 (stereo unspecified)	1.8	-1.4%	-0.1	0.0	i	0.724	-3.7
COC(=O)c1cccc(Oc2nc3c(c(=O)n(C)c(=O)n3C)n2C(C)C)c1	3.8	-0.6%	?	-3.6	i	0.716	0.1
CCc1noc(C)c1C(=O)N(CC)CC(=O)Nc1ccccc1C(F)(F)F	-0.1	-11.3%	-2.1	-2.1	i	0.685	-2.2

# Screens deposited in PubChem BioAssay by several laboratories.
